Screening results as filed in PubChem.
A488 fluor = compound autofluorescence in A488 spectral region | max dye equivalency, M | compound autofluorescence, A488 spectral region, dye equivalency; hits give high values | AID 591 | actives 0.1% (n = 59,000); active = above 10 nM dye equivalent; inconclusive = 1 to 10 nM; inactive = 1 nM or less; about half of its hits are not listed in these tables;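 note: highest value over a series up to 38 µM; compound alone in buffer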
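Intrinsic compound fluorescence is measured in 100 mM Tris buffer at pH 8.0 following 15 min incubation at room temperature. Intensities at 480 nm excitation/540 nm emission are calibrated to an on-plate A488 concentration series, giving dye-equivalent concentrations.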
Resorufin autofl = resorufin region autofluorescence. Compound fluorescence, resorufin region 547/598 nm, buffer; hits give high values. max dye-equivalent concentration, M. actives 0.04% (n = 59,000); active = above 10 nM dye equivalent; inconclusive = 1 to 10 nM; inactive = 1 nM or less; a few of its hits are not listed in these tables; note: highest value over a series up to 38 µM
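Dye-equivalent concentration values derive from comparing each well's 547/598 nm fluorescence against resorufin standards included on every plate. Incubation was 15 min at room temperature in 100 mM Tris, pH 8.0.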
A647 fluor = compound autofluorescence in A647 spectral region; Compound fluorescence, A647 channel (570/671 nm), Tris buffer; max dye-equivalent concentration, M; 59,000 tested, under 10 active; AID 592; active means above 1 µM dye equivalent; inconclusive means 0.1 to 1 µM; inactive means 0.1 µM or less;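 note: values scaled relative to a standard on each plate; highest value over a series up to 38 µM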
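Compounds pinned into 100 mM Tris pH 8.0, 15 min at room temperature, then read with 570 nm excitation/671 nm emission filters. Fluorescence normalized to an on-plate six-point Alexa 647 standard curve, giving dye-equivalent concentration per compound concentration.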
TSHR agonist = TSH receptor (human) agonism. P16473. HEK293-CNG-TSHR cells (CNG channel as cAMP sensor), membrane potential dye, cAMP. Potency, µM (titrated, usually from 57.1 µM), without a hit: at the highest dose activation, actives largely listed as activators. actives 0.48% (n = 73,000). AID 926; active = well fitted activation curve of enough size with the parental cells flat; inconclusive = any curve in the parental cells; inactive = parental cells flat and receptor cells flat or falling; note: potency is the fitted concentration of half-maximal effect; % of control where 0% means no effect; weak receptor curves with flat parental cells got no call and are not listed
Target sequence (P16473 whole entry, looked up): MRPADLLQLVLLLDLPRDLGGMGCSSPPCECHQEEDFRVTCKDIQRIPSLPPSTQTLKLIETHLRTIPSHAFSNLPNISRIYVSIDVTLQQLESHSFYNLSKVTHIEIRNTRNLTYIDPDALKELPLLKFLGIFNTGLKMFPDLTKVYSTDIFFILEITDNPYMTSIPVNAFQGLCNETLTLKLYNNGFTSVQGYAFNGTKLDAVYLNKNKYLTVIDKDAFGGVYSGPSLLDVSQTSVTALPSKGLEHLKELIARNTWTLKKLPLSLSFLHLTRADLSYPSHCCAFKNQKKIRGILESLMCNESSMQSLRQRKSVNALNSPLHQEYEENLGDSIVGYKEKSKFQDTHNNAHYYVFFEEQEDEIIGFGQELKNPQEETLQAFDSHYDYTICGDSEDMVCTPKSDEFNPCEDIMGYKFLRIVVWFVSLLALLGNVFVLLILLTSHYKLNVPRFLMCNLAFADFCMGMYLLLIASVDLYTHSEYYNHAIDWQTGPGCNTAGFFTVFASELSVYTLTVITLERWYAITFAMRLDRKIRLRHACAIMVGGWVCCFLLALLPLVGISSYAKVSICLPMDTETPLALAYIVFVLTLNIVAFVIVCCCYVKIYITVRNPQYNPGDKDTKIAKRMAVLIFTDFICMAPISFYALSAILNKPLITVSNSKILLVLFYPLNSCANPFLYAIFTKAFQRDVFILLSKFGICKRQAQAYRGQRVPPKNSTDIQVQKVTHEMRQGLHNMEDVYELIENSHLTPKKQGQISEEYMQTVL
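HEK 293 cells stably expressing TSHR and a modified CNG channel, with CNG-only parental cells as counterscreen, were preloaded 60 min at room temperature with membrane potential dye containing 100 uM RO 20-1724. Compound exposure was 30 min, and depolarization was read as fluorescence at 590 nm.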
AID923 = qHTS Assay for Allosteric/Competitive Inhibitors of Caspase-1: Spectroscopic Profiling in AFC Spectral Region. compound fluorescence, AFC spectral region (405/520 nm); almost no hit is shown here. actives 1.1% (n = 75,000). Potency, µM (highest dose often 57.5 µM), for inactives: at the top dose fluorescence increase, hits mostly activators; active = well fitted activation curve with a large enough effect; inconclusive = small, poorly fitted or top-dose-only effect;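 note: potency is the fitted concentration of half-maximal effect; 0% is about no effect; scaled to a free AFC standard on each plate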
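Titrations up to 57 uM read every 20 sec for 3 min (405/520 nm) with 50 nM caspase 1 and 5 uM Ac-WEHD-AFC, pH 7.5 HEPES buffer. Fluorescence-vs-time intercept gave baseline, scaled against on-plate AFC standard.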
Active calls of the source: *; i = inactive; ? = inconclusive; nt = not tested or not shown; & = joins results of further samples; [ ] = another dose, or the depositor's remark. Not all compounds are listed. The share of hits here may be higher or lower than overall.

SMILES	A488 fluor	Resorufin autofl	A647 fluor	TSHR agonist	AID923
O=C(Nc1sc2c(c1C(=O)O)CCCC2)c1cccs1	nt	nt	nt	6%	1.0%
COCCCNC(=O)C(C#N)c1nc2ccccc2nc1N1CCN(Cc2ccccc2)CC1 (stereo not given)	i	i	3e-08	nt	nt
COc1ccc(-c2nc(N)c3ncn([C@H]4O[C@@H](CO)[C@@H](O)[C@@H]4O)c3n2)cc1	i	i	2e-09	-1%[11.4 µM]	-1.7%[11.5 µM]
Cc1ncn(C23CC4CC(CC(O)(C4)C2)C3)n1	i	i	1e-09	13%	-0.6%
O=C(CN1C(=O)COc2ccccc21)NCCCN1CCN(Cc2ccccc2)CC1	i	i	1.5e-08	5%	0.1%
O=C(NC1CCCC1)c1ccc(COCC(F)(F)F)o1	i	i	1e-09	5%	-0.5%
O=C(C1CCC(CNS(=O)(=O)c2cccs2)CC1)N1CCCCC1 (stereo not given)	i	i	3.8e-08	2%[11.4 µM]	-0.3%
CCN1CCN(Cc2nc(N)nc(Nc3ccc(C)c(C)c3)n2)CC1	i	i	2.5e-09	-4%	0.9%
CNC(=O)c1ccc(N(Cc2ccccc2C)S(C)(=O)=O)cc1	i	i	1e-09	13%	-1.0%
CC(C)c1nnc(NC(=O)CCS(=O)(=O)c2nc(-c3cccs3)cc(C(F)(F)F)n2)s1	i	i	6.7e-08	1%	1.2%
CC(=O)N1CCCc2cc(S(=O)(=O)Nc3ccc4c(c3)OCO4)ccc21	i	i	1.6e-08	-8%	1.4%
CC(=O)c1ccc(C2C=CC(Oc3ccc(-c4ccccc4)cc3)C(CO)O2)cc1 (stereo not given)	nt	nt	nt	-2%[11.4 µM]	0.3%[11.5 µM]
O=C(NC1CCCC1)C1CCCN1C(=O)Nc1ccccc1Cl (stereo not given)	i	i	2.5e-09	3%	-2.0%
CC(=O)c1cccc(NC(=O)NC(C)C2CCCO2)c1 (stereo not given)	i	i	5.2e-08	40%	2.0%
Cc1noc(C)c1-c1cncnc1-n1ccnc1	i	i	1.9e-08	5%	1.2%
O=C(NCc1ccc2c(c1)OCO2)c1cccc(Cl)c1	i	i	3.2e-09	nt	0.7%
COc1ccc(OC)c(NC(=O)C2CCCN2C(=O)OCc2ccccc2)c1 (stereo not given)	i	i	1e-09	11%[11.4 µM]	-1.1%
O/N=C1/C2C3CC4C5C3C1C5C1(OCCO1)C42 (stereo not given)	i	i	6.9e-09	-8%[11.4 µM]	-0.2%
Cc1cc(NCc2ccc(F)cc2Cl)n2nnnc2n1	i	i	4e-08	-6%	-0.5%
CCCn1c(=O)c2ccccc2n2c(SCCOc3ccccc3)nnc12	i	i	4.5e-09	?	-0.2%

Brought forward from above: 5 entries; new compounds follow.
SMILES	A488 fluor	Resorufin autofl	A647 fluor	TSHR agonist	AID923
O=C(NCc1ccc2c(c1)OCO2)c1cccc(Cl)c1	i	i	3.2e-09	nt	0.7%
COc1ccc(OC)c(NC(=O)C2CCCN2C(=O)OCc2ccccc2)c1 (stereo not given)	i	i	1e-09	11%[11.4 µM]	-1.1%
O/N=C1/C2C3CC4C5C3C1C5C1(OCCO1)C42 (stereo not given)	i	i	6.9e-09	-8%[11.4 µM]	-0.2%
Cc1cc(NCc2ccc(F)cc2Cl)n2nnnc2n1	i	i	4e-08	-6%	-0.5%
CCCn1c(=O)c2ccccc2n2c(SCCOc3ccccc3)nnc12	i	i	4.5e-09	?	-0.2%
O=C(NCc1ccco1)Nc1ccc(Br)cc1	nt	nt	nt	-2%	-1.0%
Cc1cccc2cc3c(nc12)SC(=NCC1CCCO1)N(Cc1ccco1)C3 (stereo not given)	i	i	2.9e-08	nt	3.8%
CCOC(=O)N1CCC(NC(=O)CCC(=O)N2CC(C)Oc3ccc(C)cc32)CC1 (stereo not given)	i	i	3.6e-09	0%	-1.8%
CCCOc1ccc(Cc2nn3c(=O)/c(=C/c4ccco4)sc3nc2=O)cc1	i	i	2.9e-08	2%	1.9%
O=C(COC(=O)CCc1c[nH]c2ccccc12)NC1CCS(=O)(=O)C1 (stereo not given)	i	i	1e-09	-7%	-1.1%
CCN(CC)C(=O)c1cncc(C(=O)N(CC)CC)c1-c1ccccc1	i	i	1e-09	5%[11.4 µM]	0.7%
Cc1ccc(Cl)cc1NC(=O)Cn1cccc1	i	i	1.7e-08	4%[11.4 µM]	2.3%
O=C(c1ccco1)N1CCC[C@@]2(CCN(c3ccccc3)C2)C1	i	i	1e-09	?	3.0%
CCOC(=O)N1CCN(C(=O)C2CC(c3ccc(F)cc3)=NO2)CC1 (stereo not given)	nt	nt	nt	-18%	3.1%
CCOC(=O)N1CCN(C(=O)CN(Cc2ccc(Cl)cc2)S(C)(=O)=O)CC1	i	i	1e-09	12%	0.8%
Cc1ccc(S(=O)(=O)Cn2nnnc2CN2CCN(Cc3ccc4c(c3)OCO4)CC2)cc1	i	i	3.7e-09	16%	1.0%
COC(=O)C1(C)NC(c2ccc(O)cc2)C2C(=O)N(c3ccc4c(c3)OCCO4)C(=O)C21 (stereo not given)	i	i	1.6e-08	18%	1.2%
COC(=O)C1C(=O)CC(C)(O)C(C(=O)OC)C1c1ccccc1F (stereo not given)	i	i	1e-09	nt	nt
O=c1cc(-c2ccccc2O)oc2ccc3ccccc3c12	i	i	1e-09	10%	-2.0%
O=C(NC12CC3CC(CC(C3)C1)C2)N1CCC(O)(c2ccc3c(c2)OCO3)CC1	i	i	1.4e-08	2%	0.3%
COC(=O)c1ccccc1S(=O)(=O)N1CCC(c2nc3ccccc3o2)CC1	i	i	2.8e-08	13%	-0.2%
c1ccc(CCc2nc(-c3ccccn3)no2)cc1	i	i	1e-09	0%	3.5%
O=C(Cn1c(-c2ccccc2)noc1=O)NCc1ccccc1	i	i	2.1e-08	nt	-0.1%
NNC(=O)c1ccncc1	i	i	3.2e-08&6.7e-09	10%	4.5%
Clc1ccc(Cc2noc(Cc3ccccc3)n2)cc1Cl	i	i	6.1e-09	?	3.7%
COc1ccc(N2CCn3c2nc2c3c(=O)n(CCCc3ccccc3)c(=O)n2C)c(OC)c1	i	i	3.9e-09	-6%	3.4%
O=C(NCc1ccccn1)c1cc2ccccc2oc1=O	i	i	3e-09	3%	-0.7%
CC(=O)Nc1cc(NC(=O)C2C3C=CC(C3)C2C(=O)O)ccc1Cl (stereo not given)	i	i	1e-09	-4%	1.6%
Cc1cc(C)n(-c2nc(C)nc(NCc3ccccc3)n2)n1	nt	nt	nt	13%	0.0%
CC1CCCN(CCCNC(=O)C2CC(=O)N(c3ccc(F)c(Cl)c3)C2)C1 (stereo not given)	i	i	1e-09	-6%	-0.2%
CC(C)c1nc2oc3c(NCc4cccnc4)ncnc3c2c2c1CCC2	i	i	3e-08	?	-2.6%
CC(C)CCNC(=O)NC(=O)COC(=O)C1=COCCO1	i	i	1e-09	-1%	-0.5%
O=C(NC1CCS(=O)(=O)C1)c1cccc(S(=O)(=O)N2CCCCC2)c1 (stereo not given)	i	i	3.9e-08	?	-1.6%
Cc1ccc(C)c(-n2nnnc2SCC(=O)Nc2cccc(-c3nnc4n3CCCCC4)c2)c1	i	i	3.7e-09	?	-0.9%
CCc1ccc2[nH]c(=O)c(CN(CCCN3CCOCC3)C(=O)Nc3ccc(Cl)cc3)cc2c1	i	i	1e-09	?	-0.1%
Cc1ccc2[nH]c(=O)c(CN(CCCN3CCOCC3)C(=O)NC3CCCCC3)cc2c1	i	i	1e-09	10%	-0.1%
Cc1cccc(CS(=O)(=O)Cc2ccc(C(=O)NCc3cccnc3)o2)c1	i	i	2.7e-09	?	-1.2%
COC(=O)[C@@]1(Cc2ccc(OC)cc2)[C@H]2c3cc(C(=O)N4CCCC4)n(CCc4c[nH]c5ccc(OC)cc45)c3C[C@H]2CN1C(=O)c1ccccc1	nt	nt	nt	2%	1.4%
CCN(c1ccccc1)S(=O)(=O)c1ccc(NCC2COc3ccccc3O2)nc1 (stereo not given)	i	i	4.2e-09	1%	1.6%
Cc1ccc(-c2cc(C(=O)NCc3ccc4c(c3)OCO4)[nH]n2)c(O)c1C	i	i	1.5e-08	?	-0.9%
CC1CC(=O)C=C(O)C1C(=O)OC(C)(C)C (stereo not given)	i	i	2.4e-08	0%	-2.4%
CCOC(=O)N1CCC(NC(=O)c2cc3c(-c4ccc(OC)c(OC)c4)nn(C)c3s2)CC1	i	i	1e-09	4%	-1.3%
Cc1nnc(NC(=O)C2CCN(c3nnnn3-c3ccccc3)CC2)s1	i	i	7.5e-09	3%	-2.9%
CC(=O)c1cnc(Nc2nc(C)c3cc(C)ccc3n2)nc1C	i	i	7.1e-09	-2%	0.2%
CCCCN1C(=O)C(O)(CC(=O)c2c(C)n[nH]c2C)c2cc(Br)ccc21 (stereo not given)	i	i	6.7e-09	-3%	-2.4%
COc1cc2c(C(=O)NCc3ccccn3)cn(C)c(=O)c2cc1OC	i	i	2.4e-08	3%	0.5%
CCOC(=O)N1CCC(N2C(=O)c3ccc(C(=O)NCc4ccc(F)cc4)cc3C2=O)CC1	nt	nt	nt	3%	-0.3%
Cc1ccc(-n2c(N)c(C(=O)N3CCCCC3)sc2=S)cc1	i	i	5.2e-08	-9%	-2.1%
COCC(=O)N1CCC2(CC1)CN(Cc1ccc(C#N)cc1)C2	i	i	1e-09	1%	2.3%
CCN(Cc1cc2cc(C)ccc2[nH]c1=O)C(=O)c1cccc(OC)c1	i	i	1e-09	?	1.8%
C[C@H](NC(=O)OC(C)(C)C)c1nnc(SCC(=O)c2ccc(Cl)cc2)o1	i	i	8.3e-09	?	3.2%
Cn1c(Cn2c(=O)sc3ccccc32)nnc1SCc1cccnc1	nt	nt	nt	8%	-0.8%
Cc1sc(NC(=O)CSc2nnc(-c3ccc(F)cc3)o2)c(C#N)c1C	i	i	5.9e-09	?	0.8%
CCN(CC)c1ccc(NC(=O)c2ccc(Br)o2)cc1	nt	nt	nt	0%[11.4 µM]	1.7%
CCN1C(=O)[C@H]2[C@H]3[C@H](O)[C@H](O)C/C(=N/NC(=O)OCc4ccccc4)[C@@H]3CC[C@@H]2C1=O	nt	nt	nt	-5%[11.4 µM]	-0.9%[11.5 µM]
CCc1noc(C)c1C(=O)Nc1sc(C(=O)N(C)C)c(C)c1C(=O)OC	i	i	1.1e-08	15%	2.0%
CCOc1ccc(NC(=O)Nc2ccc3c(c2)N(C)C(=O)CS3)cc1	nt	nt	nt	-10%	0.6%
OCC1N=C(c2ccccn2)OC1c1ccccc1 (stereo not given)	i	i	1.4e-09	-1%	1.3%
O=C(Cn1cnnn1)OCC(=O)c1ccc(Cl)s1	i	i	1e-09	2%	0.1%
O=C(NCc1ccccc1)N(Cc1cc2cc3c(cc2[nH]c1=O)OCCO3)CC1CCCO1 (stereo not given)	i	i	3.5e-08	4%	2.5%
COc1ccc(OC)c(NC(=O)CCn2cccc2)c1	nt	nt	nt	1%	3.6%
Brc1cccc(-c2nnc(SCc3ccon3)n2-c2ccccc2)c1	nt	nt	nt	59%	-3.2%
C/C=C/c1ccc(OCCN2C(=O)NC(C)(C)C2=O)c(OC)c1	i	i	6.3e-09	7%	-0.5%
CN(C)C(=O)Nc1ccc(F)cc1F	i	i	7.7e-08	3%	0.5%
COc1ccc2[nH]c(=O)c(CN(Cc3cccnc3)C(=O)Nc3ccccc3)cc2c1	i	i	3.9e-09	3%	0.4%
CN(C)Cc1cc(C(C)(C)C)cc(CN(C)C)c1O	i	i	1.1e-08	3%[11.4 µM]	-0.5%[11.5 µM]
COC(=O)c1ccc(N2C(=O)CC(N3CCN(C(=O)c4ccco4)CC3)C2=O)cc1 (stereo not given)	i	i	2.4e-08	nt	nt
